High-throughput results as filed in PubChem BioAssay.
EphB4 ephrin blk: antagonists of human EphB4-ephrin-B2 interaction | AID 720 | 97,000 tested, 0.15% active | EphB4 LBD / TNYL-RAW-Alexa532 peptide, fluorescence polarization | P54760 | inhibition, % at 7 µM;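 active = inhibition above the screen-wide mean inhibition plus 3 SD, cut at about 15% in these data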;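 also: 0% = DMSO wells and 100% = excess unlabeled TNYL-RAW peptide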
PLK1 inh: blocks human PLK1 kinase activity; recombinant PLK1 kinase, TR-FRET peptide phosphorylation; inhibition, % at 10 µM; AID 619; 97,000 tested, 0.53% active; P53350;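 active = inhibition of 50% or more in the single-concentration screen; inactive = inhibition below 50%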;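 also: 0% = DMSO max control and 100% = H-89 dihydrochloride min control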
MT1-MMP txn act: MT1-MMP promoter transcription activation. HT1080 MT1-MMP promoter luciferase reporter, luminescence, overnight; stronger effect = higher value. activation factor at 10 µM. 86,000 tested, 0.16% active;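 active = activation factor of at least 2 for MT1-MMP transcription at 10 µM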
PLAP act: human PLAP activation. P05187. purified PLAP enzyme, luminescent substrate read-out; stronger effect = higher value. activation fold at 20 µM. 96,000 tested, 1.2% active; in the data active = activation fold above about 2
Target sequence (P05187 whole entry, looked up): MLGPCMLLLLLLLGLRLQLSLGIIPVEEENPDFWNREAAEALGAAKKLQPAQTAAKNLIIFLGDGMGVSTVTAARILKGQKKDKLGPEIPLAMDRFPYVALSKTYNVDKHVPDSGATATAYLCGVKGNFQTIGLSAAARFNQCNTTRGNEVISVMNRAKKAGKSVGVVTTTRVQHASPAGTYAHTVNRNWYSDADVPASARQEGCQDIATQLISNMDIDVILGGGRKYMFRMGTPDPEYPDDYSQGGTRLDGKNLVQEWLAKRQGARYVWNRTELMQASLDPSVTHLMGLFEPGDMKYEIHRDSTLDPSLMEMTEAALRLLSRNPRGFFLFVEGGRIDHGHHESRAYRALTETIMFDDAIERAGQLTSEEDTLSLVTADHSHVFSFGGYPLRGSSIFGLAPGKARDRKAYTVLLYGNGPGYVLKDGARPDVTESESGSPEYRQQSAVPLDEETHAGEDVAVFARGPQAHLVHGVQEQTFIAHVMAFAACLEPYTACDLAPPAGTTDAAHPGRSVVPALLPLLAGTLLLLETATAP
PLK1 PBD inh: Plk1 (human) PBD binding inhibition; inhibition, %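 (tested at about 20 µM)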; AID 693; P53350; 97,000 tested, 0.13% active; Plk1 PBD phosphopeptide binding, fluorescence polarization; in the data active = inhibition above about 34%, passing the limit was not always enough
HIV Rev-RRE inh: inhibitors of HIV-1 Rev-RRE RNA interaction | 97,000 tested, 0.79% active | Rev peptide-RRE RNA binding, FRET | inhibition, % at 8 µM;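 active = inhibition above the screen-wide mean plus 3 SD, cut at about 35% in these data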;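 also: 0% = median DMSO wells and 100% = median Neomycin B control wells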
Target sequence (P05866 whole entry, looked up): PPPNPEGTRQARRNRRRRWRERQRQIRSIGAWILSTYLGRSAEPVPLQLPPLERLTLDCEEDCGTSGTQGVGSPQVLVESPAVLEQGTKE
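Probe or stimulus: fluorescein-Rev peptide as binding partner; assay system: Cy5-tagged RRE RNA duplex with fluorescein-tagged Rev peptide; timing: 5 min compound–RNA preincubation, then 15 min with peptide, 25 °C; medium: HEPES pH 7.5 buffer with KCl, MgCl2, NaCl and EDTA; signal: fluorescein-to-Cy5 FRET, 480 nm excitation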
S1P2 antag: blocks the human S1P2 receptor; O95136; cell-based S1P2 antagonist assay, inhibition at 5 uM; AID 736; inhibition, % at 5 µM; 97,000 tested, 0.21% active; in the data active = inhibition above about 45%;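 also: CRE beta-lactamase reporter cells expressing human S1P2 stimulated with S1P; 0% = agonist at EC80 alone and 100% = agonist plus reference antagonist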
Target sequence (O95136 whole entry, looked up): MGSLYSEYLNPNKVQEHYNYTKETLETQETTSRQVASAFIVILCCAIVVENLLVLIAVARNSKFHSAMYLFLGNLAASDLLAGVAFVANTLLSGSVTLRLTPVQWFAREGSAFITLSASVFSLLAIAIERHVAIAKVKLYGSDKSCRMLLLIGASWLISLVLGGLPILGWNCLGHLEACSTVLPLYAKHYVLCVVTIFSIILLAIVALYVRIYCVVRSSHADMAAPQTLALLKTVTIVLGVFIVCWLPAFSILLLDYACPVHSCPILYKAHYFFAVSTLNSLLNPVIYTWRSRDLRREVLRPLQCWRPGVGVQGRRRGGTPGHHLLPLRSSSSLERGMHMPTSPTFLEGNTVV
S1P2 ag: S1P2 (human) receptor agonism | activation, % at 4.5 µM | S1P2-expressing cell line, agonist reporter read-out | 97,000 tested, 0.46% active; in the data active = activation above about 16%;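 also: 0% = vehicle low control and 100% = maximal reference agonist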
Active calls of the source: *; . = no result given. Not all compounds are listed (hit frequency here may not be typical).

SMILES	EphB4 ephrin blk	PLK1 inh	MT1-MMP txn act	PLAP act	PLK1 PBD inh	HIV Rev-RRE inh	S1P2 antag	S1P2 ag
Cc1cccc(-c2nc(NCCCN3CCOCC3)c3ccccc3n2)c1	0.0	-5.7	.	1.6	20.8	11.7	-12.2	-1.7
O=C(CCN1C(=O)C2(OCCO2)c2ccccc21)c1ccccc1	3.7	-2.1	1.3	1	-18.9	0.4	9.3	-1.1
O=C(C(c1ccccc1)N1CCOCC1)N1CCOCC1 (stereo not given)	5.5	-6.0	1	1	20.0	5.8	-11.4	2.1
Cc1nc2cc(NC(=O)N(C)c3ccc4ccccc4c3)ccc2o1	7.0	-8.8	1	1.5	16.8	9.3	4.5	-1.6
CC(=O)Cc1nsc(NC(=O)c2cc(-c3ccccc3Cl)oc2C)n1	2.5	5.7	1.1	1.7	-1.1	0.9	6.4	-3.2
COc1ccc(NC(=O)c2ccc(-n3nc(C)cc3C)cc2)cc1OC	-4.2	-1.4	1.1	1	-16.3	4.1	7.4	-1.4
CCOC(=O)C1CCN(C(=O)/C=C/c2ccc(OC)cc2)CC1	10.6	-9.2	1.2	1.2	-11.0	4.3	14.1	-2.3
Nc1c(-c2ccc(F)cc2)cnn1C1CCS(=O)(=O)C1 (stereo not given)	-1.0	-6.8	.	0.9	-3.0	9.6	-11.5	-4.8
COc1ccc(C2SCC(C(=O)O)N2C(C)=O)cc1 (stereo not given)	0.4	9.3	.	1	-13.3	1.9	-22.0	-1.1
Cn1nnc2cc(C(=O)NC3CCCCC3)ccc21	-5.8	0.7	1.1	0.8	-26.4	0.8	-25.2	-0.7
O=C(Nc1ccccc1)C1=C(O)CC(c2ccco2)CC1=Nc1ccccc1 (stereo not given)	-10.0	-2.5	1.3	0.9	-12.8	5.4	9.7	-1.1
CCOc1ccccc1CNc1nc2nc3c(c(=O)n2[nH]1)CCC3	-6.0	-8.1	1.1	0.8	-13.5	4.0	12.3	-7.1
OC(CN1CCOCC1)CN1CCOCC1	-4.4	-9.5	1.1	1.1	18.3	1.3	13.5	-8.3
COc1cccc(OC)c1C(=O)Nc1c(C)n(C)n(-c2ccccc2)c1=O	11.8	1.4	1.2	1.1	-11.5	7.8	6.0	-5.9
COc1ccc2c(Cl)c(-c3nnc(SCC(=O)c4ccccc4)n3C)sc2c1	0.4	-23.1	1	1.2	-20.6	2.9	-35.7	-3.9
CCS(=O)(=O)N1CCN(C(=O)COc2ccc(-c3ccccc3)cc2)CC1	-7.7	-2.7	1.3	1.7	-5.8	13.3	32.4	-4.8
Brc1ccc(-c2csc(/N=C/N3CCOCC3)n2)cc1	-4.7	-14.9	1.1	1.2	10.8	4.5	4.5	-5.3
O=C(NCCCN1CCOCC1)c1ccc(CNS(=O)(=O)c2ccc(F)cc2)cc1	3.5	-1.5	1.2	1.1	8.2	3.3	21.1	-4.3
c1ccc(-c2nc(NCCCN3CCOCC3)c3ccccc3n2)cc1	1.7	1.5	1.1	1.1	7.7	0.8	-11.6	-3.4
COc1ccc(-n2c(SCc3nnc(-c4ccccc4)o3)nnc2-c2ccccc2)cc1	-7.5	-2.8	.	1	-69.6	8.0	-7.3	-8.6
COc1ccc(CNc2nc(-c3cccnc3)nn2C(=O)c2ccco2)cc1	-6.0	-3.4	1.2	1.1	-9.0	8.7	-33.1	-0.8
CCOC(=O)Cn1c(=O)cnc2ccccc21	-1.3	-10.4	1.2	0.9	1.1	3.0	-13.9	-0.2
COc1nc(OC)nc(N2CCC(C(=O)NC3CCCCCC3)CC2)n1	11.6	-1.2	1.2	0.9	-16.7	3.8	1.0	-3.6
COc1ccc(N=Cc2c(O)[nH]c3ccccc23)cc1OC	-9.9	-8.2	1.4	1.3	-16.9	10.3	-6.1	-4.4
CCN(CC)S(=O)(=O)c1cc(C(=O)n2cccn2)c(Cl)cc1Cl	-5.0	-8.3	1.1	1.2	-26.8	-0.6	-4.2	-1.9

Part of the list above, limited to PLAP act, EphB4 ephrin blk and S1P2 antag.
smiles	PLAP act	EphB4 ephrin blk	S1P2 antag
OC(CN1CCOCC1)CN1CCOCC1	1.1	-4.4	13.5
COc1cccc(OC)c1C(=O)Nc1c(C)n(C)n(-c2ccccc2)c1=O	1.1	11.8	6.0

The list goes on:
SMILES	EphB4 ephrin blk	PLK1 inh	MT1-MMP txn act	PLAP act	PLK1 PBD inh	HIV Rev-RRE inh	S1P2 antag	S1P2 ag
Cc1ccc2nc3c(nc2c1)-c1ccccc1C3=O	3.2	-5.0	1.8	1	3.5	4.8	-23.2	-7.1
C=CCn1c(COc2ccccc2)nnc1SCC(=O)Nc1ccc(S(N)(=O)=O)cc1	-3.7	-7.2	1.1	1.1	30.4	0.4	-3.7	-1.8
Fc1ccc(N2CCN(c3ncnc4nc[nH]c34)CC2)cc1	-2.3	47.9	.	1.6	-20.3	-0.3	-22.3	-3.2
CCOC(=O)c1cc(=O)n(Cc2ccccc2C)c2ccccc12	1.6	-9.0	1	0.8	5.0	7.4	-18.9	1.6
CCOC(=O)c1cc2nc(Nc3ccc(OC)cc3)sc2s1	-8.6	-8.3	1.5	1	-28.5	15.9	-6.8	7.0
O=C(N/N=C1\CCCc2ccccc21)C(O)c1ccccc1 (stereo not given)	6.6	-6.7	.	1	-14.2	7.5	2.2	-8.7
COc1cccc(N=c2oc3ccccc3cc2-c2nc3ccccc3[nH]2)c1	0.2	-6.5	.	1	4.8	-1.7	-4.5	-0.9
COc1ccc(OC)c(-n2c(-c3cccc(O)c3)n[nH]c2=S)c1	-1.4	24.5	1.1	1	-10.4	1.4	6.3	-6.8
CCOC(=O)c1cc(NC(=O)c2ccc(C)cc2)c(=O)oc1-c1ccccc1	0.6	-15.6	.	0.9	-11.3	0.6	2.6	-4.2
CCOc1ccc(-c2nnc(-c3ccco3)o2)cc1OCC	-1.6	-4.3	2.1*	1.2	-5.6	6.6	-7.3	1.4
CCOC(=O)CN1C(=O)C(O)(c2c(C)[nH]c3ccccc23)c2ccccc21 (stereo not given)	-0.5	-5.7	1.2	1.4	11.1	6.4	-7.0	-6.5
CCCOc1ncnc2c1[nH]c1ccccc12	0.9	-6.6	.	1	-22.0	1.4	0.8	-11.7
CC(/C=N/n1c(COc2ccccc2)n[nH]c1=S)=C\c1ccccc1	-3.6	-12.8	.	1	7.7	-5.3	-2.0	-0.2
O=C(CSc1nc(C2CC2)nc2ccccc12)N1c2ccccc2Sc2ccccc21	1.2	-6.1	.	1.3	8.3	2.0	1.0	-0.2
Cc1nc2ccccc2c2oc(C(=O)Nc3ccc4c(c3)OCCO4)cc12	-0.9	-5.6	1.1	0.9	-7.5	0.2	1.3	-0.3
Cc1cccc(N2CC(C(=O)OCC(=O)c3ccc(OC(=O)c4cccs4)cc3)CC2=O)c1C (stereo not given)	-0.2	-4.2	.	1.2	-23.8	-3.2	-19.2	-4.1
C=CCNC(=O)c1ccccc1NC(=O)c1ccc(Cl)c(S(=O)(=O)Nc2ccccc2)c1	-2.5	-4.2	.	1	31.0	10.3	-10.5	-4.6
COc1ccc(C(C#N)Nc2ccccc2OC)cc1 (stereo not given)	5.6	-8.0	1.1	0.9	-24.6	-0.5	16.4	-5.0
CCc1cccc(C)c1NC(=O)CSc1nnc(-c2ccco2)n1N	2.8	14.8	1.1	1	3.2	9.5	23.4	-4.2
Cc1ccc(-c2nc(N/N=C/c3ccccc3[N+](=O)[O-])c3ccccc3n2)cc1	-3.4	-3.8	.	0.9	0.8	-0.8	8.5	-2.5
O=C(Nc1cccc(-c2cn3ccccc3n2)c1)c1cc2ccccc2oc1=O	-13.7	7.8	.	1.3	-8.1	-6.3	-26.1	1.2
O=C(CCc1ccc(S(=O)(=O)NC2CCCCC2)cc1)N(Cc1ccccc1)Cc1ccccc1	-4.6	-3.3	.	1.2	-17.9	8.3	18.1	-4.1
CCOc1cccc(C(=O)Nc2cc(-c3nn4c(C)nnc4s3)ccc2C)c1	0.0	-11.3	1.1	0.9	-1.5	7.9	-0.8	-4.1
CC(=O)/C(C(=N)N1CCN(c2cccc(Cl)c2)CC1)=C(\C)O	-1.9	-8.8	1.1	1.1	8.7	5.9	28.1	-7.0
COc1ccc(N=CC2=C(O)CC(C)(C)CC2=O)cc1	-1.9	-3.8	1.3	1	-29.0	-1.8	-24.5	-9.9

Two of the compounds above, field by field.
> CCCOc1ncnc2c1[nH]c1ccccc12
  EphB4 ephrin blk: 0.9	PLK1 inh: -6.6	MT1-MMP txn act: .	PLAP act: 1	PLK1 PBD inh: -22.0	HIV Rev-RRE inh: 1.4	S1P2 antag: 0.8	S1P2 ag: -11.7
> CC(/C=N/n1c(COc2ccccc2)n[nH]c1=S)=C\c1ccccc1
  EphB4 ephrin blk: -3.6	PLK1 inh: -12.8	MT1-MMP txn act: .	PLAP act: 1	PLK1 PBD inh: 7.7	HIV Rev-RRE inh: -5.3	S1P2 antag: -2.0	S1P2 ag: -0.2

(next part)
SMILES	EphB4 ephrin blk	PLK1 inh	MT1-MMP txn act	PLAP act	PLK1 PBD inh	HIV Rev-RRE inh	S1P2 antag	S1P2 ag
CCOC(=O)COc1cc2c3c(c(=O)oc2cc1C)CCCC3	-1.2	-1.6	1.2	0.8	5.9	-1.2	-10.7	-1.8
CN(c1ccccc1)c1nc(-n2ccnc2)nc(-n2ccnc2)n1	-5.5	-4.4	1.1	1	-15.2	1.6	-35.1	4.0
CC(=O)Cc1nsc(NC(=O)c2ccc(-c3ccccc3Cl)o2)n1	7.2	2.9	1.1	1.2	6.5	-3.1	-7.0	-3.6
COc1cccc(C(=O)Nc2cccc(OC(C)=O)c2)c1	1.1	-4.3	0.8	0.9	-15.7	5.2	19.5	-2.7
O=C1c2ccccc2C(=O)N1Cc1nc2ccccc2c(=O)n1CCCn1ccnc1	1.3	-17.3	1	0.9	-1.2	0.8	-0.1	-4.0
CCOc1ccc(-c2nnc(SCC(=O)Nc3ccc4c(c3)c3ccccc3n4CC)n2N)cc1	-2.4	-12.4	.	1	14.4	5.0	12.4	-6.4
Oc1[nH]c2ccccc2c1C=Nc1ccc2c(c1)OCCO2	4.4	-7.9	1.4	0.7	-17.5	-2.6	-6.6	-7.7
CC1CN=C(N(Cc2ccccc2)C(=O)Nc2ccccc2)S1 (stereo not given)	5.8	4.2	1.1	1.2	-11.1	4.0	-13.4	-7.6
Cc1ccc(OCc2nnc(SCC(=O)Nc3ccc4c(c3)OCCO4)n2Cc2ccco2)cc1	-0.9	5.2	1.7	1.6	-27.8	0.6	15.8	-3.6
COc1ccc(-c2noc(CSc3nnc(-c4ccncc4)n3-c3ccc(F)cc3)n2)cc1OC	2.6	-12.7	1	1.4	-1.4	8.2	-8.4	4.5
Cc1ccc(-c2cnc(NC(=O)CCC(=O)N3CCCCC3)n2C)cc1	1.0	-13.4	1.4	1.5	31.7	-1.6	10.1	-5.4
COc1ccc(C(=O)Nc2cccnc2)cc1	7.2	-3.5	.	0.9	-15.8	7.3	-5.6	-7.3
COc1ccccc1-c1n[nH]c(=S)o1	0.4	-12.3	.	0.8	6.7	6.6	2.2	-3.6
COc1ccc(C(=O)CSc2nnc(C(CO)NC(=O)c3ccc(OC)cc3)n2C)cc1 (stereo not given)	2.4	-6.9	0.9	0.9	-7.2	0.9	1.5	-10.2
COc1cc(C(=O)NCc2cccc3ccccc23)ccc1OCc1ccccc1	0.5	-5.6	1	1.4	-6.9	9.0	9.3	-2.8
CCOc1ccc(-n2c(SCc3nc(-c4ccc(C)cc4)no3)nnc2-c2ccncc2)cc1	-2.2	-9.1	1.1	1.7	-6.9	7.7	-22.6	-5.5
CCc1ccc(N2C(=O)c3sc4nnc(C)c(=O)n4c3C2=O)cc1	1.2	-11.1	1.1	1.1	26.8	-2.6	13.5	-3.2
CCCNC(=O)CCC(=O)Nc1ncc(-c2ccc(C)cc2)n1C	-0.6	1.2	1.2	2.2*	13.5	2.4	-6.7	-5.9
Cc1cc(N=CC2=C(O)CC(C)(C)CC2=O)no1	-1.8	-5.8	1.2	0.9	-15.1	7.6	18.7	-4.4
CCOC(=O)c1nnn(-c2nc(OC)nc(N3CCCCC3)n2)c1-c1ccccc1	6.8	-6.1	.	1.4	7.1	-3.7	-28.2	-5.3
COc1cc2c(cc1NC(=O)c1cncc(Br)c1)oc1ccccc12	3.3	-5.4	1.2	1	-5.3	-4.7	1.4	-4.7
